Assay outcomes from PubChem BioAssay.
ALR H2O2 inh – inhibitors of human sulfhydryl oxidase ALR; P55789; purified ALR, DTT oxidation, H2O2 HRP-luminol luminescence; inhibition, % (test concentration not listed); 290,000 tested, 3.8% active;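 active = mean and each replicate at 75% or more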;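 note: stock transfer was 7.5 nL into about 7.5 µL; 0% = neutral wells and 100% = wells with inactivated enzyme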
Ecoli growth – E. coli growth inhibition; 330,000 tested, 0.21% active; Escherichia coli growth, OD600, 23 h; hits give low values; OD600 absorbance (test concentration not listed);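 active = OD600 absorbance below the run mean of sample wells minus 3.6 SD, in any replicate, cut at about 0.56 in these data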;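 note: stock transfer was 300 nL into about 60 µL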
UCH37 DUB inh – inhibitors of human deubiquitinating enzyme UCH37; Q9Y5K5; inhibition, % (no concentration beside the values); purified proteasome/UCH37, Ub-AMC cleavage fluorescence; 330,000 tested, 0.33% active;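 active = mean of two replicates above 20%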;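 note: 0% = compound-free wells with enzyme and 100% = wells lacking proteasome; stock transfer was 100 nL into about 20 µL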
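assay system = human UCH37 enzyme supplied as purified proteasome complex | amount = proteasome at 0.15 nM in the dispensed enzyme solution | schedule = 30 min compound-proteasome preincubation then 25 min substrate reaction, room temperature | measured by = fluorescence, ex 355 nm, em 460 nm | benchmarks = no-proteasome wells (full inhibition) and compound-free wells (no inhibition)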
FGF22 binding – shifts melting point of recombinant human FGF22; Q9HCT0; recombinant FGF22 thermal shift, SYPRO orange fluorescence; percent of sucrose octasulfate shift, DMSO zero; calls only at 9.99 µM; 340,000 tested, 1.5% active; AID 651658;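 active = melting point raised past a set limit in the mean and every replicate; three in four hits are not shown here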
HNF4A DNA FP – change in binding of human HNF4 alpha to DNA. HNF4a-FITC DNA binding, fluorescence polarization, 1 h. 360,000 tested, 0.3% active. AID 1224865. activity change, % at 10 µM; in the data active = activity change above about 30%, passing the limit was not always enough;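 note: controls were the assay level and a saturating level of protein; the project sought stronger binding though the title names inhibitors; some compounds called inactive have numbers as strong as hits; positive values seem to mean higher polarization but the record does not say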
Beta2AR agonist – activates human beta-2 adrenergic receptor causing internalization. P07550. Am2.2-beta2AR cells, FAP receptor internalization, flow cytometry; reference of the scale not given here. response, % (test concentration not listed). 340,000 tested, 0.43% active. AID 504454;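 active = response above a set limit, near 3 SD of response in nonfluorescent compounds, cut at about 42% in these data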;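 note: stock transfer was 100 nL into about 11 µL; a reference agonist was the positive control; negative values mostly stem from fluorescent compounds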
LANA-H2B inh – blocks KSHV LANA binding to histone H2A/H2B; cell-free LANA-H2A/H2B peptide, fluorescence polarization; inhibition, % (concentration not given with the values); 320,000 tested, 0.6% active; AID 2629; in the data active = inhibition mostly above about 10%, no sharp cut-off; inactive = mostly below about 6.7%;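 note: stock transfer was 7.5 nL into about 10 µL; 0% = median of vehicle wells and 100% = median of positive control wells; one replicate is shown; the record names a cut of 25% in any replicate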
Target sequence (Q9QR71 whole entry, looked up): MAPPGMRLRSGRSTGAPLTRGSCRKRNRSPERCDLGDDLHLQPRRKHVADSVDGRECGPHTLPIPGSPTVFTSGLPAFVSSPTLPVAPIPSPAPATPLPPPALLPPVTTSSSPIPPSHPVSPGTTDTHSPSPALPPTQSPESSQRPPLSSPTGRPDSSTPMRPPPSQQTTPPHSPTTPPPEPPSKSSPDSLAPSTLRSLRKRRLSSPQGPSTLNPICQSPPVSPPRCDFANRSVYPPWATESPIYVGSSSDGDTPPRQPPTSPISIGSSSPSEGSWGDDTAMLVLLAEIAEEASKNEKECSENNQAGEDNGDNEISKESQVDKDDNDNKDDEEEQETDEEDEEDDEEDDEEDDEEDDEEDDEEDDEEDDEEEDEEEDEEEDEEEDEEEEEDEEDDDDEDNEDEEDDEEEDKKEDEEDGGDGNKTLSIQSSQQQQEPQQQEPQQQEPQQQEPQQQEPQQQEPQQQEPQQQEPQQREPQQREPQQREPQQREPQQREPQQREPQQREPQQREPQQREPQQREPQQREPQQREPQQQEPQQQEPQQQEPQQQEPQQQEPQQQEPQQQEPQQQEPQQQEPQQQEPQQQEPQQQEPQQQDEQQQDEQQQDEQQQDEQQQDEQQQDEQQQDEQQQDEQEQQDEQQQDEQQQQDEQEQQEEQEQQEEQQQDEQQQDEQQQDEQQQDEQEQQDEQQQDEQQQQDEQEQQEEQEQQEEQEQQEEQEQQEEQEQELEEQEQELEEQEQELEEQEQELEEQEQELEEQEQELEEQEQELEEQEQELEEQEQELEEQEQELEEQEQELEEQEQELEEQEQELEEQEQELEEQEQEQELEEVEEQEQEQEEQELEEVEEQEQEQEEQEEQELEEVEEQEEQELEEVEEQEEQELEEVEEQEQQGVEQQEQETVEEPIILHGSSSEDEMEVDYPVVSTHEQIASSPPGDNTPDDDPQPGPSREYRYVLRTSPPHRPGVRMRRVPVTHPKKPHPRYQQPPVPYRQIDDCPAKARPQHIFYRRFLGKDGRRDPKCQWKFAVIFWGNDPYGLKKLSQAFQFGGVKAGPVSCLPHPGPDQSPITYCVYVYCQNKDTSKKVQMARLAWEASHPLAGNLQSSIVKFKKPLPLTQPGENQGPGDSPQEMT
The depositor's hits bear a star; i = inactive; x = not tested or not shown.

SMILES	ALR H2O2 inh	Ecoli growth	UCH37 DUB inh	FGF22 binding	HNF4A DNA FP	Beta2AR agonist	LANA-H2B inh
COc1cccc(NC(=O)[C@@H](NC(=O)N2C[C@H]3C[C@@H](C2)c2cccc(=O)n2C3)C(C)C)c1	-1	0.8	4.2	i	7.2	-3	0.0
C=CCn1c(O)c(C(CC)=Nc2ccc(C(=O)O)cc2)c(=O)[nH]c1=O	x	0.71	5.1	i	-0.5	-374	-0.2
COc1cc(C(c2c(C)[nH]n(-c3ccccc3)c2=O)c2c(C)[nH]n(-c3ccccc3)c2=O)cc(OC)c1OC	-3	0.61	53*	i	-1.6	9	3.0
O=C(O)C1CN2CCC1CC2 (stereo not given)	-2	0.74	4.0	x	1.9	1	-2.5
O=S(=O)(c1ccc(Cl)cc1)N1CCCCC1c1cccnc1 (stereo not given)	-6	0.73	5.1	i	-1.0	-9	-1.0
COC(COC(N)=O)C1=C(N2CC2)C(=O)C(C)=C(N2CC2)C1=O (stereo not given)	x	x	x	i	1.5	-14	x
COC(=O)c1ccc(COc2cc(C)cc3oc(=O)c4c(c23)CCCC4)o1	-5	0.69	-10	x	2.2	2	-1.6
CCN1CCN(c2ccc(NC(=O)C(C)C)cc2Cl)CC1	4	0.7	3.0	x	-1.3	-3	-0.4
COC(=O)C1=C(c2cccc(OCc3ccccc3)c2)C[C@@H]2CC[C@H]1N2C(=O)NC1CCN(Cc2ccccc2)CC1	-7	x	3.6	i	7.2	35	-3.1
CCCCc1nc2ccccc2c(=O)n1-c1ccccc1[N+](=O)[O-]	9	0.69	24*	x	-4.6	-2	2.6
Cc1cc(NCCN)nc2ccccc12	5	x	x	x	-3.1	10	-3.5
O=C(c1ccc2c(c1)OCO2)C1CCCN(CC2CCCCC2)C1 (stereo not given)	-12	0.7	-1.7	i	-1.0	16	-2.3
C[C@]12C=CC(=O)C=C1CC[C@@H]1C2CC[C@]2(C)OC(=O)CCC12 (stereo not given in full)	0	0.69	2.0	i	-0.3	-2	0.2
CC1=CC(=O)OC2CC3OC4C[C@@H](C)C5OC6CC7O[C@]8(C)C/C=C\C9OC%10CC%11OC(CC(C)CO)CC(O)[C@]%11(C)OC%10CC9OC8C[C@]7(C)O[C@]6(C)CCC5OC4C[C@]3(C)OC12 (stereo not given in full)	-6	0.75	1.5	i	2.9	4	-4.6
CCCCC(=O)N/N=C/c1c(O)n(-c2ccccc2)c(=O)[nH]c1=O	x	0.68	8.4	i	3.4	-3	-4.6
CN1CCN(c2ccc(F)cc2N)CC1	-15	0.72	3.1	i	4.2	3	-3.2
COC(=O)C1=C(C(=O)OC)SC2(S1)C(C(=O)OC)=C(C(=O)OC)Sc1c2ssc1=O	x	x	x	i	18	58*	x
CCN1CCN(C(=O)COc2ccc(S(=O)(=O)Nc3ccc(Cl)cc3)cc2)CC1	-7	0.63	1.0	i	-2.0	-5	1.7
CCOc1ccc(-n2c(O)c(C=NCCCn3ccnc3)c(=O)[nH]c2=O)cc1	-3	0.69	1.1	x	3.4	-3	2.2
CCOC(=O)c1nc2ccccc2c(=O)n1-c1ccc(C)cc1	2	0.76	4.6	x	0.2	-6	-4.8
COc1ccc(CN2C(=O)CC(=O)NC2=O)cc1	-18	0.68	4.2	x	10	-4	-0.9
Fc1ccc(C2=CCN(C(c3cccs3)c3nnnn3CCc3ccccc3)CC2)cc1 (stereo not given)	-1	0.78	2.1	x	-1.4	9	-1.9
COc1ccc(Cl)cc1N=Cc1c(O)n(C)c(=O)n(C)c1=O	-32	0.59	1.7	i	1.2	57*	-0.5
O=C(NCc1cccnc1)Nc1ccc([N+](=O)[O-])cc1	21	0.58	10	i	-1.4	-8	1.2
BrCCc1ccccc1	-1	0.66	-0.6	i	-0.6	-9	7.4
O=C1CC23c4ccccc4N4C(=O)CC5OCC=C6CN1C2CC6C5C43 (stereo not given)	x	x	x	i	-3.5	-1	x
c1cc2n(c1)-c1c(ccc3c1OCO3)CNC2c1ccc2c(c1)OCO2 (stereo not given)	-14	0.66	1.3	x	1.0	2	-1.8
O=C(CCc1nnc2ccc(NCc3ccccc3Cl)nn12)N1CCC2(CC1)OCCO2	-3	0.7	-0.1	i	3.6	-2	-1.2
O=C(COc1ccc2c3c(c(=O)oc2c1)CCC3)N1C[C@H]2C[C@@H](C1)c1cccc(=O)n1C2	-2	0.71	-9.5	i	3.8	-12	-12
C=CCn1c(O)c(C(C)=NC(C)c2ccccc2)c(=O)[nH]c1=O (stereo not given)	-20	0.66	5.5	i	3.7	-1	3.0
CCOC(=O)c1c(C)n(Cc2ccccc2)c2ccc(OCC(O)Cn3nc(C)cc3C)cc12 (stereo not given)	-5	0.78	1.7	x	-0.3	2	0.3
Cc1nn(Cc2ccccc2)c(C)c1C(=O)NCc1ccccc1	-1	0.68	-0.3	i	-1.0	-12	-2.8
CC1Oc2ccccc2N(CC(=O)N2CCCC2)C1=O (stereo not given)	0	0.63	0.8	i	1.3	22	2.2
C=C(COC(=O)CCC(=O)O)CC1CC(O)[C@]2(C)OC3CC4OC5C[C@]6(C)O[C@]7(C)CCC8OC9C[C@]%10(C)OC%11C(C)=CC(=O)OC%11CC%10OC9C[C@@H](C)C8OC7CC6O[C@]5(C)C/C=C\C4OC3CC2O1 (stereo not given in full)	5	x	1.5	x	3.1	-2	-0.3
C=CCSc1nc2c(c(-c3ccsc3)c1C#N)CN(C)CC2	-14	0.64	1.4	i	-2.2	4	-3.0
CCOC(=O)c1c(NC(=O)C(c2ccccc2)c2ccccc2)sc2c1C1CCN2CC1	-5	0.8	-3.5	x	2.3	-3	-8.7

Next part (5 carried over from the part before).
SMILES	ALR H2O2 inh	Ecoli growth	UCH37 DUB inh	FGF22 binding	HNF4A DNA FP	Beta2AR agonist	LANA-H2B inh
Cc1nn(Cc2ccccc2)c(C)c1C(=O)NCc1ccccc1	-1	0.68	-0.3	i	-1.0	-12	-2.8
CC1Oc2ccccc2N(CC(=O)N2CCCC2)C1=O (stereo not given)	0	0.63	0.8	i	1.3	22	2.2
C=C(COC(=O)CCC(=O)O)CC1CC(O)[C@]2(C)OC3CC4OC5C[C@]6(C)O[C@]7(C)CCC8OC9C[C@]%10(C)OC%11C(C)=CC(=O)OC%11CC%10OC9C[C@@H](C)C8OC7CC6O[C@]5(C)C/C=C\C4OC3CC2O1 (stereo not given in full)	5	x	1.5	x	3.1	-2	-0.3
C=CCSc1nc2c(c(-c3ccsc3)c1C#N)CN(C)CC2	-14	0.64	1.4	i	-2.2	4	-3.0
CCOC(=O)c1c(NC(=O)C(c2ccccc2)c2ccccc2)sc2c1C1CCN2CC1	-5	0.8	-3.5	x	2.3	-3	-8.7
CC(C)CN(CC(C)C)C(=O)C1C2c3ccccc3C(c3ccccc32)C1C(=O)O (stereo not given)	x	0.66	1.4	i	0.3	2	x
CCCNC1=C(C)C(=O)C2=C(C1=O)C(COC(N)=O)[C@]1(OC)C3NC3CN21 (stereo not given in full)	-36	0.13*	1.6	i	1.9	-7	3.1
COC(=O)C1=C(c2ccc(S(C)(=O)=O)cc2)C[C@@H]2CC[C@H]1N2C(=O)NCCNC(C)=O	-11	x	1.9	x	-3.2	-11	-1.0
Clc1ccc2c(c1)C(c1ccccc1Cl)=NCc1nnc(Br)n1-2	-5	0.69	0.9	x	0.9	-5	-2.7
O=C(COc1ccccc1)N1CCN(CC2CC=CCC2)CC1 (stereo not given)	x	0.66	3.9	i	-0.1	-2	4.9
Cc1ccc(C2C(=O)NC(=O)NC2=O)cc1	0	0.66	1.6	i	-3.2	-2	4.8
COc1cc2nc(N3CCN(C(=O)[C@@H]4CCCO4)CC3)nc(N)c2cc1OC	-19	x	-82	i	3.8	-2	0.7
CC1C(c2cccs2)=[N+]([O-])C(C)(C(=O)c2ccc(Cl)cc2)N1O (stereo not given)	6	0.68	4.9	x	3.4	4	-0.5
CCC(C)N1C(=O)/C(=C\c2ccc(N3CCCCCC3)cc2)C(=O)NC1=S (stereo not given)	9	0.68	4.3	x	8.0	10	-3.7
O=C(Nc1cccc(C(F)(F)F)c1)OC1CN2CCC1CC2 (stereo not given)	x	0.65	0.7	i	1.5	0	4.3
CC(=O)OC1C2CCC1C(N1CCCC1)CC2 (stereo not given)	-19	0.72	1.6	x	2.1	-4	-3.1
CCN(CC)c1ccc(N=Cc2c(O)n(-c3ccccc3C)c(=O)[nH]c2=O)cc1	98*	0.7	7.7	x	14	11	-0.1
COc1cc(C2c3cc(O)c(OC)cc3CC3C(=O)OCC32)ccc1O (stereo not given)	x	x	x	i	-1.3	13	x
CCOc1ccc(CC2C(=O)NC(=O)N(c3ccc(CC)cc3)C2=O)cc1 (stereo not given)	33	0.69	8.5	x	3.0	-5	2.2
O=c1[nH]c(O)c(C=Nc2ccccc2[N+](=O)[O-])c(=O)[nH]1	-34	0.68	6.4	x	x	x	-5.1
COc1cc(NC(=O)CN2C3CCC2CC(O)(c2cccnc2)C3)cc(OC)c1 (stereo not given)	-9	0.65	-0.3	x	1.9	-3	3.5
COc1ccccc1NC(=O)COC(=O)c1cc(C)n(C2CC2)c1C	-1	0.67	1.4	i	-0.2	6	-3.4
Cc1cc(OC(=O)c2ccco2)c2c3c(c(=O)oc2c1)CCC3	-9	0.67	-23	i	-4.2	-6	1.7
CN(C)CC1Oc2ccccc2OC1(O)c1ccccc1 (stereo not given)	x	0.6	6.0	i	2.7	21	x
COc1ccc(-n2c(C)nc3cc(C(=O)N4CCC5(CC4)OCCO5)ccc32)cc1	-9	0.77	1.7	x	4.2	0	-1.3
O=C(Cn1cnc2ccccc2c1=O)NCC(=O)N1CCC2(CC1)OCCO2	0	0.69	-2.0	x	-0.8	4	2.8
Cc1cc(C=C2C(=O)N(C)C(=S)N(C)C2=O)c(C)n1-c1ccncc1	13	0.66	8.2	i	-6.4	14	0.4
O=C(CCN1CCCCC1)NCC(=O)Nc1ccc(Br)cc1C(=O)c1ccccc1	-2	0.71	2.3	x	53*	-7	3.2
COc1ccc(C(=O)C2CCCN(Cc3ccc(F)cc3F)C2)cc1F (stereo not given)	-2	0.65	3.8	i	2.9	-10	5.2
CCN(CC)c1ccc([N+](=O)[O-])c2cccnc12	-14	0.66	6.5	i	4.4	-7	-0.3
CN(C)C(=O)Oc1ccc(-c2cn3cc(Cl)ccc3n2)cc1	-1	0.69	-20	i	1.0	0	-2.1
CC1=Nc2cc(C(=O)N3CCC4(CC3)OCCO4)ccc2Sc2ccc(Cl)cc21	-4	0.68	1.6	i	-5.8	4	-6.6
CC(Cc1ccccc1)NC(N)=O (stereo not given)	-42	0.64	2.3	i	-1.7	-11	-1.0
COC(=O)C1=C(c2ccc(F)cc2OCc2ccccc2)C[C@@H]2CC[C@H]1N2C(=O)NC1CCN(Cc2ccccc2)CC1	-6	x	2.3	i	-4.3	13	-2.0
CN(C)c1cc(N)c2c(n1)CCC2 (tested in a mixture with another compound)	-9	0.66	-6.3	x	0.7	-1	-2.5
CC12CCC(O)CC1CCC1C2CCC2(C)C(C3=CC(=O)OC3)C(O)CC12O (stereo not given)	x	x	x	i	2.8	-2	x
CC(=O)CC(C)(C)n1c[n+](C)nn1	0	0.67	1.4	x	-2.8	0	2.4
CC(C)c1ccccc1NC1=NCCCS1	-1	0.66	3.1	i	1.3	-3	1.6
COC(=O)C(O)(c1ccc(NC(=O)NC2CCCCC2)cc1)C(F)(F)F (stereo not given)	9	0.72	3.8	i	-0.8	-1	-5.0
O=C1NC(=O)C(=Cc2ccc(N3CCOCC3)o2)C(=O)N1	-3	0.67	27*	i	138	1	-46
COc1ccc(O)c(C(C)(C)C)c1	3	0.67	0.4	i	-1.3	-7	5.3
COC(=O)C1=C(c2ccc(F)cc2OCc2ccccc2)C[C@@H]2CC[C@H]1N2C(=O)NCCO	-1	0.76	-3.3	x	-0.5	-4	0.3
CCOC(=O)C(O)(c1ccc(N=c2ccccn2C)cc1)C(F)(F)F (stereo not given)	-1	0.68	-1.5	i	-1.9	2	4.5

An excerpt; count on the stated rates, not on these rows.
